ClpP mod – qHTS Assay for Activators of ClpP. purified B. subtilis ClpP, FRET peptide cleavage, 20 min. ATP-dependent Clp protease proteolytic subunit (Bacillus subtilis (strain 168)), P80244. Potency, µM (doses to about 57.5 µM), for inactives: at the top dose activity change, negative = active. 340,000 compounds, 1.9% hits; active = well fitted falling curve with a large enough effect; inconclusive = small, poorly fitted or top-dose-only effect; inactive = no such curve, though single readings can be large or run the other way; note: potency is the fitted concentration of half-maximal effect; the source files actives as falling curves though it sought activators and does not explain the sign; nearly all actives have a fitted effect of over 65% in size; many hits overshoot -100%
Target sequence (P80244 whole entry, looked up): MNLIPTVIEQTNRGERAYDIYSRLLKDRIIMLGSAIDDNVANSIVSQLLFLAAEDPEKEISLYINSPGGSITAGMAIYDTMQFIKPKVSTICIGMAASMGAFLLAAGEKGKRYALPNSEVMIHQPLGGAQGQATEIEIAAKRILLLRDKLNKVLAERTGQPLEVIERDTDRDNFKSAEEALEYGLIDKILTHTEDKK
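Purified B. subtilis ClpP, 10 microg/mL final in Tris/HCl pH8 with KCl, BSA, glycerol and Tween-20, cleaved an Abz/nitrotyrosine-quenched decapeptide. Fluorescence (ex 320, em 430) was read at 0 and 20 min at room temperature. Delta was normalized to 5.8 microM ADEP and DMSO/no-enzyme controls.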
Sfp PPTase inh – qHTS Assay for Inhibitors of Bacillus subtilis Sfp phosphopantetheinyl transferase (PPTase); Biochemical Sfp PPTase activity, qHTS; Potency, µM, for the others: max response, negative = inhibition, hits mostly inhibitors; 310,000 compounds, 3.5% hits; AID 1490, 2009; active = well fitted inhibition curve with a large enough effect; inconclusive = small, poorly fitted or top-dose-only effect, or another doubt; inactive = no such curve, though single readings can be large or run the other way;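 note: the enzyme is Sfp with the accession as filed and its product quenches rhodamine fluorescence; potency is the fitted concentration of half-maximal effect; 0% = enzyme reaction without inhibitor and -100% = no enzyme wells; top concentration of the series not given in the record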
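Step 1, compound plus 15 nM Sfp-PPTase, 15 min, room temperature. Step 2, add rhodamine-CoA (5 uM) and BHQ-2-YbbR (12.5 uM). Step 3, read 525/598 nm fluorescence at 0 and 30 min.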
TRPV1 PAM – HTS Assay for Compounds that Act as Potentiators of the Vanilloid Receptor 1; TRPV1-expressing cells, Fluo-8 calcium influx, capsaicin EC20 potentiation; host cell line not named in the record; control for the full effect not named in the record; potentiation, % at 8.33 µM; 320,000 compounds, 0.02% hits; AID 540277, 2011; active means potentiation above 80%; inconclusive means 30% to 80%; inactive means below 30%; note: 0% is about no effect
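TRPV1-expressing cells were cultured overnight at 35.5C and loaded with Fluo-8 calcium dye for 40 to 90 min at room temperature. After a 10 s baseline, compound was added and calcium influx was read kinetically for 3 min (ex 480/em 520 nm).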
TRPML1 agonist – qHTS for Agonists of the Human Mucolipin Transient Receptor Potential 1 (TRPML1). Mucolipin-1 (Homo sapiens), Q9GZU1. TRPML1-expressing cells, Ca2+ dye fluorescence, FDSS; host cell line not named in the record; reference of the full effect not given here. activation, % (concentration not given with the values). 410,000 compounds, 0.12% hits. AID 624414, 2012; in the data active = activation above about 50%; inconclusive = about 30% to 50%; inactive = below about 30%; note: 0% is about no effect; the text of the record puts the active cut at 80%
Target sequence (Q9GZU1 whole entry, looked up): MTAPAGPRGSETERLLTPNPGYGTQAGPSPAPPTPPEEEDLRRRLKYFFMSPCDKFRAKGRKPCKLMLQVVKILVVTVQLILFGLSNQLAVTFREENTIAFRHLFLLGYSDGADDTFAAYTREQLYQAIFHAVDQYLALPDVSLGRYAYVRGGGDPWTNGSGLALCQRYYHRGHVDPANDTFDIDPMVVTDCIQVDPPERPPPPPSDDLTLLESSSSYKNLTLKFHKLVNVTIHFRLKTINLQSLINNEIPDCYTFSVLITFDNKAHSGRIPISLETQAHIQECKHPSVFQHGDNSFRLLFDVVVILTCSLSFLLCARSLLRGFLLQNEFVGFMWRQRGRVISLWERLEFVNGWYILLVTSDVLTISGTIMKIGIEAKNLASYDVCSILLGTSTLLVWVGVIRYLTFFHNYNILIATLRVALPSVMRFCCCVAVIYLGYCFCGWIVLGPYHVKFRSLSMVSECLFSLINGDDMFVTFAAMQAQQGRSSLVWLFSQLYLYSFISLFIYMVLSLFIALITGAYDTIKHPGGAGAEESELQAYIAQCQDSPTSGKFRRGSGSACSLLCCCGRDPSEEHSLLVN
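Cells: TRPML1-DL, 1X Tet inducer, ~16 h at 37 degrees C/5% CO2. Dye: ABD Ca8 no-wash + quencher, 45-90 min RT. Read: 10 s baseline, compound add, 110 s agonist phase; 54-4 EC80 (4uM final), 110 s antagonist phase.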
TRPML1 inh – qHTS for Inhibitors of the Human Mucolipin Transient Receptor Potential 1 (TRPML1). 390,000 compounds, 0.02% hits. TRPML1-inducible cells, Ca2+ dye fluorescence, FDSS; active compounds read low; inhibition of EC80 agonist-evoked calcium signal. activity change, negative = inhibition, % (concentration not given with the values). Mucolipin-1 (Homo sapiens), Q9GZU1; in the data active means activity change below about -50%; inconclusive means about -30% to -50%; inactive means above about -30%;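 note: stimulus is agonist 54-4 at its EC80 concentration; % is set by controls: 0 for no effect and ±100 for the full control effect; the text of the record puts the active cut at -80%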
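TRPML1-DL cells, Tet-induced overnight (~16 h, 37 °C) at 1,500 cells/well, were loaded with Ca8 no-wash dye plus quencher for 45-90 min at room temperature. Compounds were pinned during FDSS kinetic reading; agonist 54-4 at EC80 (4 uM final) then added.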
Menin MLL FP FL – qHTS Assay for Inhibitors Targeting the Menin-MLL Interaction in MLL Related Leukemias: Competition With Fluorescein Labeled MLL-derived Peptide; Fluorescence polarization, fluorescein-MLL peptide displacement from menin; FP activity change, % at 61.4 µM; 290,000 tested, under 10 active; AID 1766, 2009; inconclusive = falling polarisation curve, or a change in total fluorescence; inactive = total fluorescence flat and polarisation flat or rising; no compound was filed as active; the % refers to the polarisation; negative = inhibition;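 note: % of control where 0% means no effect; inhibitors lower the polarisation; unlabelled MLL peptide was the positive control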
PINK1 expr mod – A Quantitative High throughput Screen to Identify Chemical Modulators of PINK1 Expression | PINK1 immunofluorescence, high-content cytometry, 24 h | Potency, µM (top dose mostly 76.6 µM), inactives show at the highest dose activation (PINK1 increase), actives largely listed as activators | 410,000 compounds, 0.2% hits | AID 624263, 2012; active = well fitted activation curve with a large enough effect; inconclusive = small, poorly fitted or top-dose-only effect; inactive = flat fitted curve, though single readings scatter; cell line not stated here;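 note: potency is the fitted concentration of half-maximal effect; % of control where 0% means no effect; nearly all actives have a fitted effect of over 65% in size; a mitochondrial uncoupler was the plate control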
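Compound titrations (5 concentrations, 24 h) on a stable cell line; DMSO and CCCP controls. Endpoint: fixed-cell PINK1 immunofluorescence with mitochondrial, cell and nuclear markers, scanned by microplate cytometer.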
* = called active by the depositor; ? = inconclusive; . = not tested or not shown; [ ] = remark or other dose.

SMILES | ClpP mod | Sfp PPTase inh | TRPV1 PAM | TRPML1 agonist | TRPML1 inh | Menin MLL FP FL | PINK1 expr mod
COc1cccc(NC(=O)CNC(=O)[C@@H]2Cc3ccccc3CN2C(=O)OC(C)(C)C)c1 | -2.6% | 15% | -1 | 0.1 | -17 | 2.8 | 0.3%
c1ccc(NCc2cccnc2)cc1 | -0.2% | 17% | 1 | -0.3 | -5 | -2.2 | 0.0%
O=C(COc1ccccc1)N/N=C/c1ccc2c(c1)OCO2 | . | 15% | -12 | 1.5 | 15 | -0.3 | -0.3%
C=CCNc1ccc(C(=O)O)cc1 | -1.4% | -10% | 1 | -0.3 | 25 | 0.7 | 0.1%
Cc1nn2c(N3CCOCC3)c3c(nc2c1-c1ccccc1)CCCC3 | -0.5% | -13% | -7 | 0.4 | -3 | 1.5 | -1.1%
COc1ccc(Nc2ncnc3c2c(C)c(C)n3CCO)cc1 | -2.0% | 15% | -8 | -0.6 | 26 | 2.3 | 0.6%
Cc1nnc(SCC2=C(C(=O)O)N3C(=O)C(NC(=O)COc4ccc(F)cc4)C3SC2)s1 (centres undefined) | -0.2% | . | 13 | 0.2 | 12 | . | 0.5%
CC1(c2ccccc2)NC(=O)N(CC(=O)Nc2cc(Cl)ccc2N2CCOCC2)C1=O (centres undefined) | 0.5% | . | 5 | 1.2 | -14 | . | 0.6%
Cc1cccc(N2CC(O)(c3cccs3)[N+]3=C2CCCC3)c1 (centres undefined) | . | 9% | 26 | 0.5 | 13 | -1.2 | 1.2%
CCOc1ccc(C2CC(=O)c3c([nH]c(C(=O)OCc4ccccc4)c3C)C2)cc1 (centres undefined) | -3.4% | . | . | 2.7 | 10 | . | 3.0%
CCCCNC(=O)Cn1nc(Cc2ccncc2)c2ccccc2c1=O | -3.7% | 4% | -8 | 1.7 | 3 | -21 | 0.0%
O=C(CN1CCC(C(=O)c2ccc3c(c2)OCCO3)CC1)NCc1ccc(F)cc1 | . | 10% | -8 | 2.1 | 43 | 4.8 | -0.1%
c1cncc(-c2nnc(SCc3cccc4ccccc34)o2)c1 | 0.2% | 0% | . | -0.7 | -12 | 0.2 | 1.9%
COc1ccccc1CN1CN(S(=O)(=O)c2ccccc2)c2nc3ccccc3nc21 | -23% | 4% | 4 | . | . | 8.1 | 1.1%
Cc1ccc(Cl)cc1N1CCN(S(=O)(=O)c2ccc3c(c2)CCN3C(=O)C2CCC2)CC1 | 0.9% | . | . | -0.1 | -13 | . | 0.5%
Cc1ccc(S(=O)(=O)N2CCC(C(N)=O)CC2)cc1C(=O)NC1CCCCC1 | . | . | -14 | 0.7 | -14 | . | 1.8%
CCOc1ccc(/C=N/n2nnnc2N)cc1OCC | 4.2% | 16% | -5 | . | . | -2.1 | -0.7%
COc1cc(NC(=O)c2cccc(C)c2)c(OC)cc1NC(=O)CN1CCOCC1 | -3.3% | 10% | 6 | -0.3 | 14 | 0.3 | 1.5%
O=C(N=C1SC2CS(=O)(=O)CC2N1c1ccccc1F)C1CCCCC1 (centres undefined) | -1.3% | 6% | 8 | 1.3 | -2 | -6.6 | 0.5%
CCOc1ccc(Cc2nnc(SCC(=O)Nc3c(C)cccc3C)[nH]c2=O)cc1 | -2.6% | . | 5 | 0.3 | 0 | . | -1.7%
CC(=O)Nc1ccc(-c2cc(N)n(-c3ccccc3)n2)cc1 | . | 4% | -8 | -0.6 | 9 | 1.0 | -3.0%
Cc1nn(C)c(C(=O)NN)c1Cl | . | -5% | -30 | 0.0 | 12 | -3.1 | 0.4%
CCOc1cc(-c2nc(-c3ccc(-c4ccc(OC)cc4)nc3OC)no2)cc(OCC)c1OCC | 62% | . | . | 0.1 | -3 | . | -0.5%
CC(=O)NCCNC(=O)c1ccc2c(=O)n(CCc3ccccc3)c(=O)[nH]c2c1 | ? | . | . | 0.5 | -11 | . | 0.0%
FC(F)C(F)(F)C(F)(F)C(F)(F)c1cc(-c2ccccc2)n[nH]1 | 0.1% | 30% | -4 | 1.0 | 22 | 4.3 | ?
Other structures follow:
SMILES | ClpP mod | Sfp PPTase inh | TRPV1 PAM | TRPML1 agonist | TRPML1 inh | Menin MLL FP FL | PINK1 expr mod
CCOc1ccc(N2C(=O)C(CC(=O)Nc3ccccc3)N(Cc3ccccn3)C2=S)cc1 (centres undefined) | 0.8% | 15% | -1 | 0.3 | -25 | -0.7 | ?
COc1ccc(C(C(=O)NCC2CCCO2)N(C(=O)CNC(=O)c2cccs2)c2ccccc2)cc1OC (centres undefined) | . | 11% | 2 | 1.8 | 21 | 4.3 | ?
COCCOC(=O)c1c(C)oc2ccc(OC(=O)c3ccc4c(c3)OCO4)cc12 | -6.0% | -13% | 6 | 1.1 | -6 | 30 | 5.4%
O=C1CCCN1c1ccc(S(=O)(=O)Nc2cccnc2)cc1 | . | 10% | 6 | -0.4 | 0 | 2.0 | 3.6%
Cc1c(Cl)cccc1NC(=S)NC1CCCC1 | 0.1% | 2% | -37 | 0.6 | 14 | -2.0 | 0.1%
CCN(CC(=O)NCc1ccc(F)cc1)C(=O)c1ccc(C(=O)c2ccccc2)cc1 | . | 5% | 4 | 1.4 | 6 | -4.2 | 2.7%
CCOC(=O)c1c(NC(=O)CSc2nnc(-c3ccccc3)n2CC)sc(C(C)=O)c1C | -0.5% | 14% | 19 | 2.9 | -2 | 4.8 | -0.4%[38.3 µM]
Cc1cccc(-n2c(SCC(=O)Nc3nnc(C)s3)nnc2-c2ccoc2C)c1 | -0.5% | -9% | -6 | 0.9 | -13 | -4.0 | -1.2%
COc1ccc(C(=O)NCc2nnc(SCC(=O)N3CCc4ccccc43)n2Cc2ccccc2)cc1 | -0.2% | -3% | ? | 0.3 | 0 | 11 | 5.0%
CN1CCCC1CCNc1ccc2c(=O)c3ccccc3oc2c1 (centres undefined) | 3.7% | -6% | -7 | 0.3 | -15 | 1.6 | 3.6%
NS(=O)(=O)c1ccc(NC(=O)c2ccc(S(=O)(=O)N3CCCCCC3)cc2)cc1 | 0.3% | . | . | -0.2 | -7 | . | 2.0%
CCCCC[C@H](O)/C=C/C1C(=O)C=C[C@H]1C/C=C\CCCC(=O)OC (some centres undefined) | 2.5% | . | . | 2.1 | -21 | . | -2.2%
COc1ccccc1NC(=O)Nc1nc(CC(=O)Nc2cccc(F)c2)cs1 | -1.3% | . | -4 | 0.2 | -22 | . | 1.6%
O=c1c(-c2ccc(Br)cc2)coc2c(CN3CCOCC3)c(O)ccc12 | ? | 7% | 0 | -0.5 | -8 | 1.9 | -0.7%
Cc1ccc(/C=N/n2c(C)cc(C)c(C#N)c2=O)o1 | 0.6% | 16% | 8 | 1.4 | 0 | 1.4 | 0.0%
CCN1CCCC1CNC(=O)c1ccc(CS(=O)(=O)c2ccccc2C)o1 (centres undefined) | 1.9% | 3% | 0 | -0.3 | 48 | 2.4 | -1.7%
Cc1cc(O)c(/C=N/Nc2ccc(F)cc2)c(=O)o1 | . | 79µM* | -11 | 0.5 | -17 | 2.1 | 1.3%
COc1ccc(CN(CC(=O)NCC2CCCO2)C(=O)CCC(=O)Nc2cc(C)ccn2)cc1 (centres undefined) | ? | 15% | 29 | 0.3 | -17 | 0.7 | -4.0%
N/C(=N\OC(=O)CCCc1ccccc1)c1ccc([N+](=O)[O-])cc1 | 1.3% | -17% | -2 | -0.6 | -7 | 0.2 | -0.7%
COc1ccccc1NC(=O)N1CCC(NC(=O)C2CCCCC2)CC1 | . | 16% | -1 | 0.0 | -15 | -0.1 | -0.3%
COc1ccc(Cl)cc1N=Cc1c(O)cc(C)oc1=O | -7.9% | . | . | 6.1 | -10 | . | .
CCCC(=O)Nc1ccccc1NC(=O)CN(C)S(=O)(=O)c1ccccc1 | 0.4% | 9% | 6 | -0.9 | -19 | 5.3 | 0.5%
COC(=O)[C@H](Cc1ccccc1)NC(=O)[C@@H](N)CC(=O)OCc1ccccc1 | 1.3% | . | -2 | 1.6 | -12 | . | 3.2%
Cc1cc(C)cc(C(=O)NCC(c2ccc(N(C)C)cc2)N2CCCC2)c1 (centres undefined) | 0.0% | . | . | 0.3 | 5 | . | -0.6%
Fc1ccc(C2=CC(c3cccs3)n3nnnc3N2)cc1 (centres undefined) | . | 10% | ? | 1.2 | -2 | 9.7 | 3.3%
(continued)
SMILES | ClpP mod | Sfp PPTase inh | TRPV1 PAM | TRPML1 agonist | TRPML1 inh | Menin MLL FP FL | PINK1 expr mod
Cc1c(C(=O)NCc2ccc([N+](=O)[O-])cc2)sc(=O)n1Cc1ccc(-c2ccccc2)cc1 | -2.8% | . | . | 0.8 | . | . | -0.6%
Cc1ccnn1CCC(=O)N1CCCC(N2CCN(c3cccc(Cl)c3)CC2)C1 (centres undefined) | 0.8% | 10% | -8 | 0.3 | 48 | . | 2.0%
O=C(COC(=O)CNC(=O)c1cc(Cl)cc([N+](=O)[O-])c1)NC(=O)NCc1ccco1 | -2.0% | . | . | -0.2 | -13 | . | 0.4%
CN1CCN(C(=O)CSc2nc(-c3cccs3)cc(-c3cccs3)c2C#N)CC1 | -7.1% | -30% | -5 | 8.9 | 21 | ? | -2.4%
Oc1ccc(Br)cc1C=Nc1cccn2cc(-c3ccccc3)nc12 | . | -15% | 10 | -0.9 | -12 | 3.7 | 4.2%
Clc1ccc(Cn2cc(Br)cn2)cc1Cl | 1.0% | 1% | -2 | 1.2 | 10 | -2.2 | 4.1%[38.3 µM]
COc1cccc(CNC(=O)C(=O)NCC2CCCN2S(=O)(=O)c2cc(C)ccc2C)c1 (centres undefined) | -1.3% | . | -10 | 0.1 | 1 | . | 5.1%
CCCSc1nc(-n2ncc(C#N)c2N)c2c3c(sc2n1)CCC(C)C3 (centres undefined) | ? | 1% | 4 | 0.6 | 38 | 2.9 | 17%[38.3 µM]
O=C(OCc1ccccc1)N1CCC2CC1c1cc(/C=C/CCCSc3ncccn3)ccc12 (centres undefined) | -0.6% | . | . | 0.7 | 3 | . | 0.3%

Assay outcomes deposited in PubChem BioAssay by National Center for Advancing Translational Sciences (NCATS).

Random draw from the library; any-hit rate near 4.4%.
